# Assay outcomes (PubChem)
# KCNQ2 block: KCNQ2 channel blockers in CHO-K1 cells – cell-based, FluxOR thallium flux, B-score, primary screen (AID 2156). B-score at 10 µM. 1.1% of 310,000 active. 20 min; hits give low values; only compounds with negative scores are shown here; some inactives read as strong as hits. O88943;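 active means fluorescence ratio B-score at most minus 3 library SDs, with starting brightness B-score within 2 library SDs, cut at about -5.5 in these data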
# Target sequence (O88943 whole entry, looked up): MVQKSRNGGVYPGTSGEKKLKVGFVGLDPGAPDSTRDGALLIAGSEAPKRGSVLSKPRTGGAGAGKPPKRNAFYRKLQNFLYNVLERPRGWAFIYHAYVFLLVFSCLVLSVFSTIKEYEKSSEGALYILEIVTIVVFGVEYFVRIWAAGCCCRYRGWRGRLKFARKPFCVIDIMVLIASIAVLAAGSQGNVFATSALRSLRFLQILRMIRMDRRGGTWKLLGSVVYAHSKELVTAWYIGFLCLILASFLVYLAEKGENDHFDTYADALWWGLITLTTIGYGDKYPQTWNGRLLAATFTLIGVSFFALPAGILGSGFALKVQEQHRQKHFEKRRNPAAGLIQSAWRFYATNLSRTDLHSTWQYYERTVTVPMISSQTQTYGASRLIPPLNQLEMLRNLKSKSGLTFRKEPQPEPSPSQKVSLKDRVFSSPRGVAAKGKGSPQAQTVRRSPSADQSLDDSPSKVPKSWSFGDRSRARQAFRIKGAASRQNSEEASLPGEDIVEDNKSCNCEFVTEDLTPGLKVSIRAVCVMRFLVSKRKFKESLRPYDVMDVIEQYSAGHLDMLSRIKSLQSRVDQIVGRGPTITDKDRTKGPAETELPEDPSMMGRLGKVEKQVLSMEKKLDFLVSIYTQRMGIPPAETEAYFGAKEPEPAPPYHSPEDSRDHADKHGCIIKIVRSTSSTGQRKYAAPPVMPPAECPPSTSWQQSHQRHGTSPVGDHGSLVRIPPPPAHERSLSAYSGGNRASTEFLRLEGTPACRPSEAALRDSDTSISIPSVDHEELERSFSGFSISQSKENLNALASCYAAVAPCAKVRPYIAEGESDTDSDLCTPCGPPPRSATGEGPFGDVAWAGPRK
# KCNQ2 block baseline: also measured in KCNQ2 block; calls as there; B-score; measured here: initial fluorescence intensity artifact check;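 brightness before thallium and not channel activity; 0 = typical well and far values either way flag optical interference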
# The depositor's hits bear a star; i = inactive. A portion of the library; count on the stated rates, not on these rows.
item	SMILES	KCNQ2 block	KCNQ2 block baseline
1	CC(/C=C/c1ccc2c(c1)OCO2)=N/NC(=O)CNc1ccc(C)cc1	i	0.27
2	O=C(CO/N=C/c1ccccc1Cl)N1CCCc2ccccc21	-6.1*	-0.05*
3	Cc1[nH]nc2c1C1(CCN(Cc3ccccc3)CC1)C(C#N)=C(N)O2	i	0.84
4	Cc1cc(C)nc(SCc2ccc(C(=O)N/N=C3\CC(C)CC(C)(C)C3)cc2)n1 (stereo unspecified)	i	0.56
5	Cc1ccc(-n2nc(C(=O)c3ccccc3)n3c(=O)c(Cc4ccccc4)nnc23)cc1	i	-1.68
6	COc1ccc(S(=O)(=O)Nc2ccc(-n3cccc3)cc2)cc1	i	2.25
7	COc1c(Cl)cc(Cl)cc1C(=O)Nc1ccc(CN2CCCCC2)cc1	i	-1.05
8	COc1ccc(N2CCN(C(=O)c3cc([N+](=O)[O-])ccc3N3CCN(CCO)CC3)CC2)cc1	i	1.54
9	Cc1ccc(NC(=O)c2cc(=O)c3ccccc3o2)cc1	i	0.5
10	Cc1ccc(-c2cc(C(=O)Nc3ccc(S(=O)(=O)Nc4nc(C)cc(C)n4)cc3)c3ccccc3n2)cc1	i	-0.58
11	C[C@H]1CCC[C@]2(O[C@@H](CCO)C[C@H](O)[C@H]2O)O1	i	-2.01
12	COc1cc(C(=O)NCC(c2cccnc2)N2CCN(c3ccc(F)cc3)CC2)cc(OC)c1OC (stereo unspecified)	i	0.47
13	COc1cccc(-c2nc3ccc(O)cc3c(=O)o2)c1	i	-0.36
14	CC1=NN(Cc2cc(C(C)(C)C)c(O)c(C(C)(C)C)c2)C(=O)C1	i	-1.62
15	Cc1ccc(C(=O)NCc2ccc3c(c2)OCO3)cc1N1CCCC1=O	i	2.43
16	O=C(NCCN1CCN(c2ccccc2)CC1)Nc1cccc(Cl)c1	i	4.72
17	Cc1ccc(NC(=O)c2ccccc2Cl)cc1-n1cnnn1	i	-0.9
18	Cc1cc(C)nc(NC2=NCC(=O)N2CCc2c[nH]c3ccccc23)n1	i	-1.07
19	Cc1cc(/C(O)=C2\C(=O)C(=O)N(CCN(C)C)C2c2ccncc2)ccc1OCc1ccccc1 (stereo unspecified)	i	1.69
20	COc1ccc(C(=S)N2CCOCC2)cc1OS(=O)(=O)c1ccccc1[N+](=O)[O-]	-6.72*	0.03*
21	Cc1ccc(-c2nnc(NC3CCCCC3)c3ccccc23)cc1S(=O)(=O)N1CCN(C)CC1	i	0.26
22	CN(c1ccccc1)S(=O)(=O)c1ccc2ccccc2c1	i	-1.23
23	Cc1cc(Cl)ccc1OCC(=O)NNC(=O)c1cccs1	i	0.93
24	Cc1cc(C(=O)OCC(=O)c2ccc(Cl)c([N+](=O)[O-])c2)c2cccc(C)c2n1	i	0.54
25	O=C1/C(=C/c2cccnc2)Oc2cc(OS(=O)(=O)c3ccccc3)ccc21	i	-0.71
26	COc1cc2nc(NCC3CCCO3)n3nc(-c4cccnc4)nc3c2cc1OC (stereo unspecified)	i	0.2
27	CC(C)COP(=O)(OCC(C)C)C(Nc1ccccc1)c1ccc2c(c1)OCO2 (stereo unspecified)	i	-0.84
28	CC(C)C[C@@]12C(=O)N(c3cccc(Cl)c3)C(=O)N1[C@H](c1ccc(Cl)cc1)[C@@H]1C(=O)N(C3CCCCC3)C(=O)[C@@H]12	i	2.02
29	OC(COCc1ccc(Cl)cc1)CN1CCN(c2ccccn2)CC1 (stereo unspecified)	i	1.84
30	O=C(Nc1cccnc1)c1cc(-c2ccco2)on1	i	0.65

# 5 of these compounds, set out differently:
No. | KCNQ2 block | KCNQ2 block baseline | Compound
26 | i | 0.2 | COc1cc2nc(NCC3CCCO3)n3nc(-c4cccnc4)nc3c2cc1OC (stereo unspecified)
27 | i | -0.84 | CC(C)COP(=O)(OCC(C)C)C(Nc1ccccc1)c1ccc2c(c1)OCO2 (stereo unspecified)
28 | i | 2.02 | CC(C)C[C@@]12C(=O)N(c3cccc(Cl)c3)C(=O)N1[C@H](c1ccc(Cl)cc1)[C@@H]1C(=O)N(C3CCCCC3)C(=O)[C@@H]12
29 | i | 1.84 | OC(COCc1ccc(Cl)cc1)CN1CCN(c2ccccn2)CC1 (stereo unspecified)
30 | i | 0.65 | O=C(Nc1cccnc1)c1cc(-c2ccco2)on1

# Random excerpt: three compounds from above
item	SMILES	KCNQ2 block	KCNQ2 block baseline
16	O=C(NCCN1CCN(c2ccccc2)CC1)Nc1cccc(Cl)c1	i	4.72
21	Cc1ccc(-c2nnc(NC3CCCCC3)c3ccccc23)cc1S(=O)(=O)N1CCN(C)CC1	i	0.26
3	Cc1[nH]nc2c1C1(CCN(Cc3ccccc3)CC1)C(C#N)=C(N)O2	i	0.84

# The results go on.
item	SMILES	KCNQ2 block	KCNQ2 block baseline
31	O=C(N/N=C/c1ccc2cccnc2c1)c1ccco1	i	2.61
32	C=CCN(C(=O)Nc1ccccc1)C1CC(=O)N(c2ccc(OC)cc2)C1=O (stereo unspecified)	i	0.1
33	CC(C(=O)Nc1ccccc1)N(C)CCOc1ccccc1 (stereo unspecified)	i	0.45
34	COc1ccc(NC(=O)c2cc(CN3C(=O)c4ccccc4C3=O)ccc2OC)cn1	i	0.46
35	CCCn1nnnc1NC(=O)COc1ccc(Cl)cc1C	i	-0.13
36	CNC(=S)N(Cc1ccccc1)Cc1cccnc1	i	-0.03
37	CCCc1nc(SCC(=O)Nc2cc(C)on2)c2c(=O)n(C)c(=O)n(C)c2n1	i	-1.51
38	CCOc1ccc2c(c1)-c1c(ssc1=S)C(C)(C)N2C(=O)c1ccco1	-8.84*	-0.6*
39	CCOC(=O)c1ccc2[nH]c3ccccc3c2c1	i	0.36
40	NC(=O)C1CCN(S(=O)(=O)c2cccc(S(=O)(=O)N3CCCCC3)c2)CC1	i	1
41	CC(C(=O)Nc1ccc2c(c1)OCO2)N1CCN(C)CC1 (stereo unspecified)	i	1.36
42	COc1cc2c(cc1OC)C(c1ccccc1)N(C(=O)C(C)(C)C)CC2 (stereo unspecified)	i	-0.16
43	NC(=O)c1ccc(Cc2ncc(C(F)(F)F)cc2Cl)s1	i	0.16
44	NS(=O)(=O)c1ccc(CCNC(=O)CCCn2ncn3c(cc4occc43)c2=O)cc1	i	0.12
45	O=C(COc1ccc2ccccc2c1Br)NNC(=O)Nc1ccccc1	i	0.66
46	CCN(CC)C(=O)CCn1nc(-c2ccc(C)cc2)c2ccccc2c1=O	i	-2.29
47	COC(=O)c1ccc(NC(=O)Cn2nc(SC)n(N)c2=S)cc1	i	2.82
48	Cc1ccc2c(c1)nnn2C1CCN(C(=O)c2cccs2)CC1	i	3.56
49	COC(=O)c1cc(S(=O)(=O)N2CCN(c3ccc(C(C)=O)cc3)CC2)cn1C	i	1.73
50	Nc1nnc(SCC(=O)OCc2ccccc2)s1	i	2.38
51	O=c1c2ccccc2cnn1CCOc1cccc(Br)c1	i	0.35
52	CCOC(=O)c1sc(=S)n(C)c1NC(=O)c1ccccc1Cl	i	-0.34
53	COCCOc1cc(-n2cccc2)c(Cl)cc1Cl	i	-0.06
54	COc1cc2c(cc1OC)CN(C(C)C(=O)Nc1ccc(NC(C)=O)cc1)CC2 (stereo unspecified)	i	-0.02
55	COC(=O)c1sc(C(=O)OC)c(C(=O)OC)c1C(=O)OC	i	0.05
56	COc1ccc(CNC(=O)C2CCN(S(=O)(=O)c3cccnc3)CC2)cc1	i	-1.58
57	COc1cc(NC(=S)N2CCN(S(=O)(=O)c3ccc(F)cc3)CC2)cc(OC)c1	i	-1.18
58	Cc1ccc(Sc2nc3ccc(C)cn3c(=O)c2/C=N/O)cc1	i	2.33
59	O=C(Nc1cccnc1)c1cc(-c2ccc(Br)cc2)nc2ccccc12	-6.28*	-0.48*
60	CCCCNC(=O)c1ccccc1NS(=O)(=O)c1ccc2c(c1)OCCO2	i	-0.38
61	Cc1ccc2c(c1)n([O-])c1c([n+]2=O)CCCC1	i	-0.8
62	Cc1cc(Cl)c(S(=O)(=O)NCCC(=O)O)cc1OCC(N)=O	i	-1.46
63	Cc1ccc(CN2CC(C(=O)Nc3ccc(S(=O)(=O)Nc4cc(C)nc(C)n4)cc3)CC2=O)cc1 (stereo unspecified)	i	-0.06
64	CS(=O)(=O)N1CCN(C(=O)c2ccc(Cl)s2)CC1	i	-1.35
65	CCSc1nsc(NC(=O)Nc2cccc(F)c2)n1	i	1.27
66	O=C(COC(=O)Cn1cnc2ccccc2c1=O)Nc1ccccc1Sc1ccc(Cl)cc1	i	-0.1
67	Cc1cc(=O)[nH]c(SCc2cn3ccccc3n2)n1	i	0.03
68	CCc1ccc(C2=NN(C(=O)OC)C(O)(C(F)(F)F)C2)cc1 (stereo unspecified)	i	1.15
69	C=CCc1cccc(CNc2nc3ccccc3n2CC)c1O	i	0.18
70	Cc1ccnc(N/C=C(/NC(=O)c2ccccc2)C(=O)NN)n1	i	2.09
71	CCOC(=O)N1CCC(NC(=O)CC2C(=O)NCCN2Cc2ccccc2F)CC1 (stereo unspecified)	i	1
72	C=CCn1cnc2c(c1=O)c1nc3ccccc3nc1n2/N=C/c1cc(OC)c(OC)c(OC)c1	-7.86*	-1.53*
73	COc1ccccc1-n1c(SCC(=O)NCC2CCCO2)nc2c([nH]c3ccccc32)c1=O (stereo unspecified)	i	-0.48
74	O=C(O)c1ccc(N2CCN(Cc3ccc4c(c3)OCO4)CC2)c([N+](=O)[O-])c1	i	-0.86
75	CC(C)c1ccccc1OCC(=O)NC1CCCc2ccccc21 (stereo unspecified)	i	-0.09
76	Cc1cc(=O)[nH]c(SCc2csc(-c3ccccc3)n2)n1	i	-2.89
77	Cc1cccc(N2CCN(C(=O)Cn3ccc4ccccc4c3=O)CC2)c1C	i	-1.18
78	Cc1cccc(NC(=S)NC(C)(C)CC(C)(C)C)c1	i	-1.37
79	COc1cccc(NC(=O)N2CCCC2C(=O)Nc2ccc3c(c2)OCO3)c1 (stereo unspecified)	i	0.14
80	CCCCC(CCC(=O)O)(C(=O)OCC)c1csc(Nc2ccc(OCC)cc2)n1 (stereo unspecified)	i	1.18
81	CC1(C)C(C=C(Cl)Cl)C1C(=O)N(Cc1cccc(Cl)c1)C1CCS(=O)(=O)C1 (stereo unspecified)	i	-1.98
82	C/C(=C\C(=O)c1ccc(Br)cc1)NNC(=O)c1ccccc1	i	1.11
83	Cc1ccccc1N(C(=O)CNC(=O)c1ccco1)C(C(=O)NC1CCCCC1)c1cccnc1 (stereo unspecified)	i	2.07
84	O=C(Nc1ccccc1C(=O)Nc1ccccc1C(=O)NCc1ccco1)c1ccco1	i	-2.49
85	CC(C)(C)n1ncc2c(=O)n(Cc3ccc(Cl)c(Cl)c3)cnc21	i	2.14
86	CCOC(=O)/C(=N/Nc1ccccc1)N1CCCc2ccccc21	i	-0.54
87	O=C(Nc1ccc2nsnc2c1)N1CCCCCC1	i	0.01
88	O=C(CSc1ccc2ccccc2n1)N1CCC(c2noc3ccc(F)cc23)CC1	i	-1.82
89	CCC(=O)NCc1cc(-c2nn(C)c(=O)c3ccccc23)ccc1OC	i	-2.89
90	COc1ccc(/C=N/OC/C(O)=C(\C#N)c2nc3ccccc3[nH]2)cc1	i	0.95

# The listing continues.
item	SMILES	KCNQ2 block	KCNQ2 block baseline
91	COc1cccc(Nc2nc(NCC3CCCO3)c3ccccc3n2)c1 (stereo unspecified)	-10.1*	-0.66*
92	Cc1c(NS(=O)(=O)c2cc(Br)cc3c2N(C(=O)C2CC2)CC3)c(=O)n(-c2ccccc2)n1C	i	0.57
93	Cn1c(-c2csc(-c3cccc(C(F)(F)F)c3)n2)n[nH]c1=S	i	3.81
94	Nc1nc(Cl)cc(-c2ccccc2)n1	i	0.78
95	S=C(NCc1ccco1)Nc1ccc(Oc2ccccc2)cc1	i	-0.45
96	COc1cc2c(C(=O)NCc3ccc(C)o3)cn(CC(C)C)c(=O)c2cc1OC	i	-1.34
97	CCCCC(Sc1nc(C)c(Cc2ccccc2)c(=O)[nH]1)C(=O)O (stereo unspecified)	i	-0.02
98	COc1ccc(C(=O)N2CCCCCC2)cc1OC1CCN(C(C)=O)CC1	i	0.49
99	CC(C)(C)n1ncc2c(=O)n(CC(=O)NCCc3ccccc3)cnc21	i	1.49
100	CC(C)C[C@H](NC(=O)c1[nH]cnc1C(=O)N[C@H](C)c1ccccc1)C(=O)OCc1ccccc1	i	2.02
101	O=c1c2ccccc2nnn1CCN1CCOCC1	i	-0.02
102	COc1ccc(-n2nc(C(=O)NCC(=O)NCCc3ccc(OC)c(OC)c3)c3ccccc3c2=O)cc1Cl	i	-0.05
103	CC(C)(C)OC(=O)NCCCCCc1nnc(SCc2c(F)cccc2Cl)o1	i	0.41
104	Cc1cnc(C(=O)OCC(=O)Nc2cc(Cl)cc(Cl)c2)cn1	i	-0.74
105	Nc1[nH]ncc1-c1ccccc1	i	0.43
106	COc1ccccc1OCc1ccc(C(=O)NN)cc1	i	-2.56
107	Cc1cc(C)c(C)c(S(=O)(=O)N2CCN(CC(=O)c3c(N)n(Cc4ccccc4)c(=O)n(C)c3=O)CC2)c1C	i	-1.35
108	CCC1CCCCN1C(=O)Cn1c(=O)n(CCC(=O)NCc2ccco2)c(=O)c2sccc21 (stereo unspecified)	i	0.47
109	C=C(C)CNC(=S)NNC(=O)c1ccc(Br)cc1	i	1.15
110	COc1ccc(C2Nc3ccccc3NC3=C2C(=O)CC(C)(C)C3)cc1 (stereo unspecified)	i	-0.35
111	O=C1CSC(c2ccccc2[N+](=O)[O-])N1CCc1ccccc1 (stereo unspecified)	i	-1.53
112	Cc1ccc(NC(=O)CN(Cc2ccco2)Cc2ccccc2O)cc1C	-5.81*	-0.37*
113	C/C(=N/NC(=O)c1nnn(-c2nonc2N)c1COc1ccccc1)c1ccccc1	i	0.59
114	O=C(Oc1ccccc1Cl)c1ccccc1P(=O)(O)O	i	0.17
115	CC1(C)Cc2c(sc3nc4n(c(=O)c23)CCC4)CO1	i	-3.24
116	C=CCOc1ccc(CNCCO)cc1OCC	i	1.88
117	CCC(C)NC(=O)CSc1nnc(-c2cc(-c3ccc(C)cc3)nc3ccccc23)n1N (stereo unspecified)	i	-0.39
118	CCN1CCN(S(=O)(=O)c2ccc(Cl)c(C(=O)N(C)Cc3cccc(Cl)c3Cl)c2)CC1	-6.89*	0.56*
